High-throughput results from PubChem BioAssay.
TRPML1 blocker – human mucolipin-1 channel inhibition; AID 624415; Q9GZU1; actives 0.02% (n = 390,000); activity change, negative = inhibition, % (test concentration not listed); TRPML1-inducible cells, Ca2+ dye fluorescence, FDSS; stronger effect = lower value; inhibition of EC80 agonist-evoked calcium signal; in the data active means activity change below about -50%; inconclusive means about -30% to -50%; inactive means above about -30%;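 note: stimulus is agonist 54-4 at its EC80 concentration; % is set by controls: 0 for no effect and ±100 for the full control effect; compound concentration not given in the record; the text of the record puts the active cut at -80%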
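TRPML1-DL cells, Tet-induced overnight (~16 h, 37 °C) at 1,500 cells/well, were loaded with Ca8 no-wash dye plus quencher for 45-90 min at room temperature. Compounds were pinned during FDSS kinetic reading; agonist 54-4 at EC80 (4 uM final) then added.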
D2 agonist – activates the human D2 dopamine receptor; activation, % (no concentration beside the values); P14416; actives 0.084% (n = 360,000); DiscoveRx PathHunter D2 beta-arrestin, luminescence, 90 min; 100% = 57 uM dopamine signal; in the data active = activation above about 40%; inconclusive = about 15% to 40%; inactive = below about 15%; note: compound concentration not given in the record; the text of the record calls up to 30% inactive
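Agonist mode: compounds alone added to overnight-plated D2 PathHunter cells for 90 min at 37 C, with 57 uM final dopamine (EC100) defining full response. Beta-arrestin recruitment detected by chemiluminescent reagent, read after 1 h at ambient temperature.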
PINK1 modulator – modulators of PINK1 expression; PINK1 immunofluorescence, high-content cytometry, 24 h; Potency, µM (doses to about 76.6 µM), for inactives: at the highest dose activation (PINK1 increase), most hits filed as activators; actives 0.2% (n = 410,000); active = well fitted activation curve with a large enough effect; inconclusive = small, poorly fitted or top-dose-only effect; inactive = flat fitted curve, though single readings scatter; cell line not stated here;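 note: potency is the fitted concentration of half-maximal effect; % of control where 0% means no effect; nearly all actives have a fitted effect of over 65% in size; a mitochondrial uncoupler was the plate control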
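Cells are seeded, rested 12 hours, then given compound at five concentrations or DMSO for 24 hours. After fixation, blocking and antibody staining, PINK1 amount and mitochondrial localization are scored; CCCP serves as control.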
CtBP-E1A blk – blocks the CtBP interaction with E1A; AlphaScreen GST-E1A/His-CtBP binding, 1536-well; stronger effect = lower value; control for the full effect not named in the record; activity change, % (no concentration beside the values); actives 0.49% (n = 340,000); in the data active means activity change below about -65%; inconclusive means about -30% to -65%; inactive means above about -30%; note: % is set by controls: 0 for no effect and ±100 for the full control effect; compound concentration not given in the record
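Steps: dispense buffer (Tris pH 8.0, NaCl 300 mM, TCEP 1 mM, BSA, Tween 20); add 5X protein mix (GST-E1A, His-CtBP, 125 nM each); pin 23 nL compound; 2 h at 37 °C, dark; add 5X beads (50 ug/mL); 1 h; read.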
TRPML1 agonist – activates the human TRPML1 channel; Q9GZU1; TRPML1-expressing cells, Ca2+ dye fluorescence, FDSS; host cell line not named in the record; reference of the full effect not given here; activation, % (concentration not given with the values); actives 0.12% (n = 410,000); AID 624414; in the data active = activation above about 50%; inconclusive = about 30% to 50%; inactive = below about 30%; note: 0% is about no effect; the text of the record puts the active cut at 80%
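TRPML1-DL cells, Tet-induced overnight (~16 h, 37 degrees C), loaded 45-90 min at room temperature with Ca8 no-wash calcium dye plus quencher. FDSS fluorescence: 10 s baseline, compound pin-transfer, 110 s agonist read, then EC80 54-4 (4uM final) and 110 s antagonist read.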
Six1-Eya2 inh – inhibitors of human Six1/Eya2 interaction. AlphaScreen GST-Six1/His-Eya2 binding, biochemical; stronger effect = lower value; control for the full effect not named in the record. activity change, % (concentration not given with the values). actives 0.56% (n = 360,000). AID 651725; in the data active = activity change below about -65%; inconclusive = about -30% to -65%; inactive = above about -30%; note: % is set by controls: 0 for no effect and ±100 for the full control effect
Target sequence (O00167 whole entry, looked up): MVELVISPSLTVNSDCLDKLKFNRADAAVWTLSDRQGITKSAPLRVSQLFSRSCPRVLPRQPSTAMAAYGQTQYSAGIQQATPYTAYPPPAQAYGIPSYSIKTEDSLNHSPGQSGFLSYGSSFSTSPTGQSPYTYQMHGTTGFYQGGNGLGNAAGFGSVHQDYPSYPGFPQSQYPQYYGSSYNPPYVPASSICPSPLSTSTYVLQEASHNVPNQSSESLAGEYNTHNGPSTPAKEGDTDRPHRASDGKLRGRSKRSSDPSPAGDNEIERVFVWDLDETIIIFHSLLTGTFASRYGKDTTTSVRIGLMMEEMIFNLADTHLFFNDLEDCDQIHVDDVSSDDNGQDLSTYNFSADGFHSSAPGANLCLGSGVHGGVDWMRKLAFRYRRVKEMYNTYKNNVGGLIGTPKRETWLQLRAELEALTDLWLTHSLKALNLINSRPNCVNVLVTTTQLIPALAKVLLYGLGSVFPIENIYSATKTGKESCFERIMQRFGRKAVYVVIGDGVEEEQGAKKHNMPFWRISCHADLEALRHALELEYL
Target sequence (Q15475 whole entry, looked up): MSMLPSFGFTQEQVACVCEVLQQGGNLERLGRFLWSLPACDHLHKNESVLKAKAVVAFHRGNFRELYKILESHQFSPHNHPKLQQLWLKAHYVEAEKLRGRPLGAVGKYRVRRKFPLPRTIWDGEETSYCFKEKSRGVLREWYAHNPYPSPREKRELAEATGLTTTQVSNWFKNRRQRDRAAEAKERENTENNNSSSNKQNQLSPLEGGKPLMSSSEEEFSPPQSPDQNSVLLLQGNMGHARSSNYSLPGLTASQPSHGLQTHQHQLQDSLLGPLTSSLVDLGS
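GST-Six1 + His-Eya2 (5X stock: 250/500 nM); Tris pH 8.0, 300 mM NaCl, 0.05% BSA, 0.02% Tween 20; GSH donor/Ni acceptor beads; 1 h 37 °C dark; AlphaScreen readout.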
* hit, by the source's call; · = no result given; & = joins results of further samples; [ ] = another dose, or the depositor's remark.

SMILES | TRPML1 blocker | D2 agonist | PINK1 modulator | CtBP-E1A blk | TRPML1 agonist | Six1-Eya2 inh
CSc1ccccc1OCc1cc(C(=O)N(C)C(C)c2nc(C)cs2)no1 (configuration not stated) | 15 | -1.2 | 0.7% | 1 | 2.0 | -6
Cc1ccc(S(=O)(=O)/N=C(/Nc2ccc3[nH]c(=O)[nH]c3c2)c2ccc(F)cc2)cc1 | 21 | -7.9 | -0.6% | · | -0.1 | -30
CCOC(=O)c1ccc(NC(=O)c2cnccn2)cc1 | -3 | 0.7 | 1.4% | -2 | 0.1 | -1
CC1CCN(S(=O)(=O)c2nnc(NC(=O)c3ccccc3Br)s2)CC1 | -11 | -2.8 | 0.0% | -12 | -0.1 | 4
COc1ccc(C2CC(c3cccc(OC)c3)n3nc(N)nc3N2)cc1 (configuration not stated) | -9 | -0.7 | -0.9% | 2 | 3.6 | -1
CC1(C)C[C@@H]2C[C@@](C)(CN2C(=O)c2cc(COc3cccc(C(F)(F)F)c3)on2)C1 | -8 | -0.7 | 27% | 15 | -0.5 | 21
CCCCCCCCN1C(=O)[C@H](CC(=O)NCCCC)C[C@@]2(C(=O)OC)CCCCC=C12 | · | · | 16% | 2 | -0.5 | 0
COc1ccc(Br)cc1/C=C/C(=O)NC(=S)Nc1ccc(Cl)c(C(=O)O)c1 | 12 | -6.7 | -0.2% | · | 1.0 | -3
COc1ccccc1NC(=O)c1ccc(Cl)c(S(=O)(=O)N2CCCCC2)c1 | 75 | -3.2 | -1.3% | -4 | 0.9 | 2
COC(=O)c1[nH]c2cc(C)ccc2c1NC(=O)CN1CCOCC1 | 21 | -0.4 | -0.3% | -1 | 2.4 | 3
COC(=O)c1ccc(NC(=O)CSc2nnc(C(C)NC(=O)c3ccccc3Cl)n2C)cc1 (configuration not stated) | -1 | -1.7 | -1.1% | -2 | 1.7 | 0
CCCOc1ccc(C2C(=O)N(C3CCCCC3)CC(=O)N2C2CCCCC2)cc1OC (configuration not stated) | -4 | · | 3.2% | · | 0.7 | ·
Cc1ccc(S(=O)(=O)CCC(=O)NC2CCCC2)cc1 | 10 | -4.7 | 1.5% | 4 | 6.9 | 3
Cc1ccc2nc(N(CCCN(C)C)C(=O)c3ccco3)sc2c1 | 2&20 | -3.0 | 1.2%&1.5% | -19 | -0.2&0.3 | -1
COc1ccc(-c2nnc(SCc3cc(C)cc(C)c3)o2)cc1 | 9 | -3.5 | 1.3% | 38 | 1.5 | 40

A different layout for two compounds above.
Each structure is followed by: TRPML1 blocker, D2 agonist, PINK1 modulator, CtBP-E1A blk, TRPML1 agonist, Six1-Eya2 inh
COC(=O)c1ccc(NC(=O)CSc2nnc(C(C)NC(=O)c3ccccc3Cl)n2C)cc1 (configuration not stated)
→ -1, -1.7, -1.1%, -2, 1.7, 0
CSc1ccccc1OCc1cc(C(=O)N(C)C(C)c2nc(C)cs2)no1 (configuration not stated)
→ 15, -1.2, 0.7%, 1, 2.0, -6

Random excerpt: 7 entries already listed.
SMILES | TRPML1 blocker | D2 agonist | PINK1 modulator | CtBP-E1A blk | TRPML1 agonist | Six1-Eya2 inh
CCCOc1ccc(C2C(=O)N(C3CCCCC3)CC(=O)N2C2CCCCC2)cc1OC (configuration not stated) | -4 | · | 3.2% | · | 0.7 | ·
COC(=O)c1ccc(NC(=O)CSc2nnc(C(C)NC(=O)c3ccccc3Cl)n2C)cc1 (configuration not stated) | -1 | -1.7 | -1.1% | -2 | 1.7 | 0
COc1ccc(C2CC(c3cccc(OC)c3)n3nc(N)nc3N2)cc1 (configuration not stated) | -9 | -0.7 | -0.9% | 2 | 3.6 | -1
Cc1ccc(S(=O)(=O)CCC(=O)NC2CCCC2)cc1 | 10 | -4.7 | 1.5% | 4 | 6.9 | 3
Cc1ccc2nc(N(CCCN(C)C)C(=O)c3ccco3)sc2c1 | 2&20 | -3.0 | 1.2%&1.5% | -19 | -0.2&0.3 | -1
COC(=O)c1[nH]c2cc(C)ccc2c1NC(=O)CN1CCOCC1 | 21 | -0.4 | -0.3% | -1 | 2.4 | 3
CCCCCCCCN1C(=O)[C@H](CC(=O)NCCCC)C[C@@]2(C(=O)OC)CCCCC=C12 | · | · | 16% | 2 | -0.5 | 0

Some of these compounds in order of the D2 agonist value, descending.
structure | TRPML1 blocker | D2 agonist | CtBP-E1A blk | Six1-Eya2 inh
COc1ccc(C2CC(c3cccc(OC)c3)n3nc(N)nc3N2)cc1 (configuration not stated) | -9 | -0.7 | 2 | -1
Cc1ccc2nc(N(CCCN(C)C)C(=O)c3ccco3)sc2c1 | 2&20 | -3.0 | -19 | -1
COc1ccc(-c2nnc(SCc3cc(C)cc(C)c3)o2)cc1 | 9 | -3.5 | 38 | 40
Cc1ccc(S(=O)(=O)CCC(=O)NC2CCCC2)cc1 | 10 | -4.7 | 4 | 3
Cc1ccc(S(=O)(=O)/N=C(/Nc2ccc3[nH]c(=O)[nH]c3c2)c2ccc(F)cc2)cc1 | 21 | -7.9 | · | -30

The results go on.
SMILES | TRPML1 blocker | D2 agonist | PINK1 modulator | CtBP-E1A blk | TRPML1 agonist | Six1-Eya2 inh
O=C(NN1CCOCC1)c1ccccc1NS(=O)(=O)c1ccc(F)cc1F | 22 | -4.6 | 0.2% | -13 | 0.6 | -2
O=C(CCS(=O)(=O)c1ccccc1)Nc1nc(-c2ccc(F)cc2)cs1 | -19 | 12 | -2.5% | 1 | 0.1 | 2
O=C(c1ccc2c(c1)N(Cc1ccccc1)C(=O)c1ccccc1S2(=O)=O)N1CCCCCC1 | -8 | · | 1.0% | · | 0.0 | ·
Cc1ccccc1C(=O)N1CCC(C(=O)OCc2nc(N)nc(Nc3ccccc3)n2)CC1 | 0 | -1.9 | 0.5% | · | -0.7 | -5
C=Cc1ccc2c(c1)N(C)C(=C)S2 | -5 | 0.3 | -3.7% | 1 | 0.1 | 4
O=C(NCCCN1CCOCC1)c1cc(-c2ccc(O)cc2)on1 | 1 | -6.4 | -0.7% | 3 | 0.2 | 3
CCN(C(=O)CSc1nc2ccccc2n1Cc1ccc(F)cc1Cl)c1ccccc1 | 22 | · | 0.3% | · | 0.1 | ·
COc1cc(C(=O)N2CCC(n3cnc4cc(F)ccc43)CC2)cc(OC)c1OC | 17 | -0.8 | 0.6% | 1 | -0.1 | 8
Cc1cc(F)ccc1NC(=S)NCCc1ccccc1 | -11 | -1.0 | 0.1% | -19 | 0.7 | -8
CCOC(=O)C1CCCN(CC(O)COC(c2ccccc2)c2ccccc2)C1 (configuration not stated) | 13 | -1.6 | 1.2% | 0 | 0.8 | 13
CCCCC1(CCCC)NC(=S)N(Nc2ccc(C)cc2)C1=O | -7 | 1.9 | 4.6%[38.3 µM] | 2 | 0.4 | 2
Cc1ccc(C(=O)Nc2nnc(NC(=S)Nc3ccccc3)s2)cc1 | -19 | -6.0 | 3.9% | -1 | 1.0 | -12
Oc1ccc(N2CCN(C(=S)NCCc3ccccc3)CC2)cc1 | 10 | 14 | -0.4% | -12 | -0.3 | -10
CN(Cc1cccs1)S(=O)(=O)c1ccc(Cl)cc1F | -5 | -1.7 | 0.4% | 20 | 0.6 | 21
COc1ccc(-c2noc(CCC(=O)NCC3CCCO3)n2)cc1 (configuration not stated) | 10 | -1.8 | -1.7% | 11 | -0.5 | 8
CC(C)(C)n1ncc2c(=O)n(CC(=O)c3ccccc3)cnc21 | -5 | 1.2 | -0.1% | 5 | 4.0 | -1
CCCN(CCC)S(=O)(=O)c1ccc(C(=O)Nc2nc(-c3ccccc3)c(C(=O)OCC)s2)cc1 | 2 | 0.5 | 10.0% | 5 | 1.0 | 10
CSc1ccc(CCNC(=O)c2ccc3c(c2)nc2n3CCCCC2)cc1 | -16 | · | 0.3% | · | 4.1 | ·
O=c1[nH]c2cc3c(cc2cc1C(c1nnnn1C1CCCC1)N1CCCc2ccccc21)OCCO3 (configuration not stated) | -6 | -2.3 | 1.0% | -17 | 0.4 | 3
CCCn1c(SCC(N)=O)nnc1-c1ccco1 | -9 | 6.5 | -2.2% | -2 | 3.9 | 4
O=C1NC(=O)/C(=C\c2ccc(OCc3cnc(Cl)s3)cc2)S1 | -5 | 3.7 | -0.8% | -26 | -0.7 | 1
CC(C)Oc1ccc(CNC(=O)Cn2c(=O)oc3ccccc32)cc1 | 10&-6 | 1.9 | -0.8%&1.0% | 1 | -0.8&-1.3 | -9
CN(C)C(=O)CCC(=O)N1CCCCC1C(=O)Nc1ccc(Oc2ccccc2F)cc1 (configuration not stated) | -11 | -8.6 | 2.4% | 3 | -0.1 | -3
COc1cc(-c2noc(-c3ccc(NCc4ccccc4)c([N+](=O)[O-])c3)n2)cc(OC)c1OC | -12 | · | 0.7% | · | -0.8 | ·
CCOc1ccc(C(C#N)N2CCOCC2)cc1OC (configuration not stated) | 1 | -1.8 | 0.8% | 6 | -0.2 | 5
C[C@H]1CCCCO[C@H](CN(C)Cc2ccc(C(=O)O)cc2)[C@@H](C)CN([C@@H](C)CO)C(=O)c2cc(NS(=O)(=O)c3cn(C)cn3)ccc2O1 | -15 | -9.1 | 4.0% | 5 | -0.3 | 8
COc1ccc(CN(C)CC(=O)NC(=O)NCc2ccccc2)cc1OC | -5 | -2.6 | -0.7% | 6 | -0.5 | 0
Cn1ccnc1C(=O)c1cc(=O)c2ccccc2o1 | -3 | 0.8 | 0.1%[38.3 µM] | 7 | 0.4 | 0
Cc1cc(C)c2c(c1)cc(C)c1nnc(SCC(=O)Nc3ccc(S(=O)(=O)N4CCCCC4)cc3)n12 | -6 | -0.7 | 2.7% | -2 | 1.6 | -10
O=C1NC(=S)S/C1=C1\Sc2ccccc2N1CCCS(=O)(=O)O | 13 | -2.3 | 3.3% | -10 | -0.8 | -17
COc1cccc(NC(=O)COC(=O)c2ccc(F)cc2F)c1 | 19 | -2.8 | 1.5% | 8 | -0.4 | 1
Cc1oc2c(C)c(O)ccc2c(=O)c1N1C(=O)c2ccccc2C1=O | 11 | 3.2 | 0.7% | 11 | 1.8 | 7
CCCCOc1ccc(N2C(=O)CC(N(CCc3ccccc3)C(=O)/C=C/C(=O)O)C2=O)cc1 (configuration not stated) | -3 | -1.4 | 1.0% | -9 | -0.2 | 2
NS(=O)(=O)c1ccc(CCNC(=O)c2cc3ccccc3oc2=O)cc1 | 9 | -1.0 | 1.3% | -2 | -1.1 | -14
